Screening results (PubChem)
Ecoli rRNA inh: inhibitors of bacterial rRNA selective over humanized ribosomes | E. coli WT GFP vs humanized-ribosome RFP mutants, fluorescence, 24 h; active compounds read low; DMSO median 0, no signal -100 | GFP signal change (wild-type ribosome), % (no concentration beside the values) | 350,000 compounds, 1.6% hits | AID 720706;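 active means significant combined selectivity score with lowered wild-type GFP, culture density cut under 30%, mutant RFP and density less affected; inactive means any of these conditions unmet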; further: one replicate is shown; some compounds called inactive have numbers as strong as hits
MLL AF4-AF9 inh: MLL-AF4/AF9 protein interaction inhibition | AlphaScreen, biotin-AF4 peptide binding to FLAG-AF9 | P42568 | inhibition, % at 10 µM | 350,000 compounds, 0.47% hits;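 active means every replicate reaching a set inhibition limit, whatever the replicate mean, cut at about 25% in these data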;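 further: 0% = plate neutral control median and 100% = total signal loss; the record names both 10 and 1 µM as test concentration; the first replicate is given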
Target sequence (P42568 whole entry, looked up): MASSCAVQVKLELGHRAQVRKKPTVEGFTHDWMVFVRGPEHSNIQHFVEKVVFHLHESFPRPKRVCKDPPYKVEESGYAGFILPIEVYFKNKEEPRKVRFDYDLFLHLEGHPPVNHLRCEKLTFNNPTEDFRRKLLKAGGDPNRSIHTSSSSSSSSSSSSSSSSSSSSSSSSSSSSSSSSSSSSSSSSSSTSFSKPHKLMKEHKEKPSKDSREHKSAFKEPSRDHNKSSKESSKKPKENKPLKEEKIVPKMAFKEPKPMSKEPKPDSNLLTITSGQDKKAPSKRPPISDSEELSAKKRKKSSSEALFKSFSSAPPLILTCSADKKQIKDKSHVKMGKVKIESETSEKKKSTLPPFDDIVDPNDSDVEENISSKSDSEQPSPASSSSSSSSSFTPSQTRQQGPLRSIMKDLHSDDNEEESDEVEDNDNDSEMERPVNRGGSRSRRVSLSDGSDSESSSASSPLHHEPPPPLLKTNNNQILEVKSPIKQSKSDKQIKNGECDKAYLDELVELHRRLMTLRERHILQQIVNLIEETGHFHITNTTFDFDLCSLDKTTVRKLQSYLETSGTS
FGF22 binding: FGF22 (human) thermal shift binding; recombinant FGF22 thermal shift, SYPRO orange fluorescence; percent of sucrose octasulfate shift, DMSO zero; 340,000 compounds, 1.5% hits; calls only at 9.99 µM; Q9HCT0;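 active means melting point raised past a set limit in the mean and every replicate; three in four hits are not shown here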
Target sequence (Q9HCT0 whole entry, looked up): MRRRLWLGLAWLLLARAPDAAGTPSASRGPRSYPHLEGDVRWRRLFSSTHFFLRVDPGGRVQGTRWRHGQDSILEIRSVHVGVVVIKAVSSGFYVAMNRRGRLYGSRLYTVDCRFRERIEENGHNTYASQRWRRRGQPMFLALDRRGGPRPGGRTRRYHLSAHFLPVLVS
Ecoli rRNA inh OD600: also measured in Ecoli rRNA inh; calls as there; OD600 change, %; measured here: OD600 growth;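 optical density of the mix in the first replicate; 0 = DMSO median and -100 = no signal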
Ecoli rRNA inh RFP: second read-out of Ecoli rRNA inh, no call of its own (marks repeat the call); RFP signal change, %; measured here: RFP humanized mutant strains;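 first replicate; 0 = DMSO median and -100 = no signal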
* hit, by the source's call; i = inactive; & = joins results of further samples. Not all compounds are listed; rates above refer to the full screens.

#	structure	Ecoli rRNA inh	Ecoli rRNA inh OD600	Ecoli rRNA inh RFP	MLL AF4-AF9 inh	FGF22 binding
1	COCC(=O)N1CC2(C1)[C@@H](c1ccc(-c3cccc(C)c3)cc1)[C@@H](CO)N2C(=O)C1CC1	0	-8	3.7	-9.9	i
2	COc1ccc(S(=O)(=O)Nc2cccc3c2O[C@H](CN(C)S(=O)(=O)c2cccs2)[C@@H](C)CN([C@@H](C)CO)C3=O)cc1	0	-5	0.1	1.8	i
3	CCCNC(=O)[C@H]1[C@H](CO)[C@H]2Cn3c(ccc(/C=C/c4ccccc4)c3=O)[C@@H]1N2C(=O)C1CCC1	-4	-9	0.2	-5.1	i
4	C[C@@H]1CN([C@H](C)CO)C(=O)c2cc(NC(=O)NC3CCCCC3)ccc2O[C@H]1CN(C)Cc1ccc(Oc2ccccc2)cc1	0	9	-3.4	-9.1	i
5	C[C@@H]1CN([C@@H](C)CO)C(=O)c2cc(NC(=O)CCC(F)(F)F)ccc2O[C@@H]1CN(C)C(=O)NC1CCCCC1	-1	-1	-0.4	-9.6	i
6	COc1ccc(CN2CCNC(=O)C2CC(=O)N(C)C2CCCCC2)cc1OC (centres undefined)	11	10	0.5	0.9	i
7	Cc1ccc(S(=O)(=O)Nc2cccc3c2O[C@@H](CN(C)Cc2ccc(-c4ccccc4)cc2)[C@H](C)CN([C@@H](C)CO)C3=O)cc1	1	9	-1.6	2.5	i
8	C[C@H](CO)N1C[C@H](C)[C@H](CN(C)Cc2ccc(-c3ccccc3)cc2)Oc2ccc(NC(=O)CCCCCC(=O)Nc3ccccc3N)cc2CC1=O	-3	5	3.8	1.1	i
9	CNC[C@H]1Oc2ccc(NC(=O)NC3CCCCC3)cc2CC(=O)N([C@@H](C)CO)C[C@H]1C	6	3	-3.0	-2.6	i
10	CNC[C@@H]1Oc2ccc(NC(=O)Nc3ccc(C(F)(F)F)cc3)cc2C(=O)N([C@H](C)CO)C[C@H]1C	-4	0	0.3	4.1	i
11	O=C([C@@H]1[C@@H](CO)[C@@H]2Cn3c(cccc3=O)[C@@H]2N1Cc1cc(F)ccc1F)N1CCOCC1	0	11	-1.5	-2.9	i
12	COc1ccc(S(=O)(=O)Nc2cccc3c2O[C@@H](CN(C)S(=O)(=O)c2ccc(Cl)cc2)[C@@H](C)CN([C@H](C)CO)C3=O)cc1	4	12	0.9	-0.9	i
13	COc1ccccc1NC(=O)N1CCCCN2[C@@H](CO)[C@@H](c3ccc(-c4cccc(C)c4)cc3)[C@@H]2C1	-58	-71	-14	9.1	i
14	CO[C@@H](CN(C)S(=O)(=O)c1ccc(C)cc1)[C@H](C)CN(C(=O)Nc1ccccc1F)[C@H](C)CO	-4	-1	3.6	1.4	i
15	COc1ccccc1NC(=O)N[C@H]1CC[C@H](CCNS(=O)(=O)c2ccc(F)cc2)O[C@H]1CO	0	-2	-3.5	0.8	i
16	Cc1noc(C)c1NC(=O)N(C)C[C@H]1Oc2ccc(NC(=O)Cn3cnnn3)cc2C(=O)N([C@H](C)CO)C[C@H]1C	2	1	-0.8	-2.8	i
17	O=S1(=O)N[C@H](Cc2ccccc2)COc2cc(F)ccc21	-5	11	0.5	-2.9	i
18	C[C@@H]1CCCCO[C@H](CN(C)S(=O)(=O)c2cccs2)[C@@H](C)CN([C@H](C)CO)C(=O)c2cc(NC(=O)c3ccncc3)ccc2O1	2	1	-1.7	-4.4	i
19	C=CCCC(=O)N1C[C@H]2CON(C)[C@H]2C[C@H]1c1ccc(N2CCCCC2)cc1	1	3	2.6	-1.6	i
20	O=C(C[C@@H]1CC[C@H]2[C@@H](COC[C@@H](O)CN2C(=O)Nc2ccc(F)cc2)O1)NCC1CC1	-2	6	-2.5	3.8	i
21	C[C@H](CO)N1C[C@H](C)[C@@H](CN(C)CC2CCCCC2)Oc2c(NC(=O)c3nc4ccccc4s3)cccc2C1=O	2	11	1.4	7.6	i
22	COc1ccc(NC(=O)N(C)C[C@@H]2Oc3c(NC(=O)CCCCCC(=O)Nc4ccccc4N)cccc3C(=O)N([C@@H](C)CO)C[C@H]2C)cc1	3	-2	-0.1	3.0	i
23	CC(C)C[C@H]1CNC(=O)C(=O)N1C[C@H]1CCCN1C[C@H](CC(C)C)N1C[C@H](Cc2ccccc2)N(CC2CCCCC2)C(=O)C1=O	29	8	3.6	-1.7	i
24	C/C=C/c1cnc2c(c1)C(=O)N([C@H](C)CO)C[C@H](C)[C@H](CN(C)C(=O)C1CCOCC1)O2	-2	8	-4.1	-2.1	i
25	C[C@H](CO)N1C[C@H](C)[C@H](CN(C)S(C)(=O)=O)Oc2ccc(NS(=O)(=O)c3cn(C)cn3)cc2C1=O	3	8	-2.2	-3.6	i
26	CC1(C(=O)NCc2cccc3ccccc23)CCN1Cc1cc2ccccc2o1 (centres undefined)	-25	-44	-7.2	-3.4	i
27	CO[C@@H]1CN(C)C(=O)c2cc(NC(=O)Nc3ccccc3)ccc2OC[C@@H](C)N(CC2CC2)C[C@@H]1C	1	0	2.1	-0.4	i
28	COc1cccc(S(=O)(=O)Nc2ccc3c(c2)[C@@H]2C[C@@H](CC(=O)NCC(F)(F)F)O[C@@H](CO)[C@@H]2O3)c1	-1	4	-0.6	0.9	i
29	CCC(=O)N(C)C[C@@H]1Oc2cc(C#Cc3cccnc3)ccc2S(=O)(=O)N([C@H](C)CO)C[C@H]1C	-4	-5	-1.0	-1.0	i
30	CCC(=O)N1[C@H](C(=O)N(C)C)[C@@H](CO)[C@@H]2Cn3c(ccc(-c4ccc(F)cc4)c3=O)[C@@H]21	0	6	0.4	-4.8	i
31	CO[C@H](CN(C)C(=O)C1CCOCC1)[C@H](C)CN(C(=O)Nc1ccc(F)cc1)[C@H](C)CO	1	12	-3.6	-2.2	i
32	C[C@@H]1CCCCO[C@H](CN(C)C(=O)C2CCCCC2)[C@H](C)CN([C@H](C)CO)C(=O)c2cc(NS(=O)(=O)c3ccc(F)cc3)ccc2O1	-4	-12	2.3	3.8	i
33	CCOc1ccc(C(=O)N[C@H](C(=O)NC2CCCCC2)C(C)C)cc1	4	7	-5.3	-11	i
34	C[C@@H]1CN([C@@H](C)CO)C(=O)c2cc(C#Cc3ccc(F)cc3)cnc2O[C@@H]1CN(C)Cc1ccccn1	-2	-8	2.0	3.5	i
35	CC(C)C#Cc1ccc([C@H]2[C@H](C#N)N(C(=O)CN(C)C)[C@H]2CO)cc1	4	7	-2.5	2.1	i
36	O[C@@H]1CN(CC2CCCCC2)[C@@H](c2ccccc2)C[C@H]1n1cc(C2CC2)nn1	-25	-60	-3.9	3.7	i
37	COc1cccc(Cn2c3ccc(NC(=O)Cc4ccccc4C)cc3c(=O)n2C)c1	0	3	-0.3	-2.1	i
38	CC(C)C#Cc1ccc2c(c1)O[C@@H](CN(C)C(=O)c1ccncc1)[C@H](C)CN([C@@H](C)CO)S2(=O)=O	-6	-14	0.2	-7.8	i
39	C/C=C/c1ccc([C@H]2[C@H](CO)N(C(C)=O)[C@H]2CN(C)C(=O)c2ccccn2)cc1	1	2	-0.8	-2.1	i
40	COc1cccc(NC(=O)C[C@H]2CC[C@H]3[C@H](COc4ccc(NC(=O)c5ccccc5F)cc4C(=O)N3C)O2)c1	0	-6	1.6	-29	i

Structural class: the entries above containing a CF3 group.
#	structure	Ecoli rRNA inh	Ecoli rRNA inh OD600	Ecoli rRNA inh RFP	MLL AF4-AF9 inh	FGF22 binding
5	C[C@@H]1CN([C@@H](C)CO)C(=O)c2cc(NC(=O)CCC(F)(F)F)ccc2O[C@@H]1CN(C)C(=O)NC1CCCCC1	-1	-1	-0.4	-9.6	i
10	CNC[C@@H]1Oc2ccc(NC(=O)Nc3ccc(C(F)(F)F)cc3)cc2C(=O)N([C@H](C)CO)C[C@H]1C	-4	0	0.3	4.1	i
28	COc1cccc(S(=O)(=O)Nc2ccc3c(c2)[C@@H]2C[C@@H](CC(=O)NCC(F)(F)F)O[C@@H](CO)[C@@H]2O3)c1	-1	4	-0.6	0.9	i

In a second layout: entries from further up
entry | Ecoli rRNA inh | Ecoli rRNA inh OD600 | Ecoli rRNA inh RFP | MLL AF4-AF9 inh | FGF22 binding | Molecule
32 | -4 | -12 | 2.3 | 3.8 | i | C[C@@H]1CCCCO[C@H](CN(C)C(=O)C2CCCCC2)[C@H](C)CN([C@H](C)CO)C(=O)c2cc(NS(=O)(=O)c3ccc(F)cc3)ccc2O1
26 | -25 | -44 | -7.2 | -3.4 | i | CC1(C(=O)NCc2cccc3ccccc23)CCN1Cc1cc2ccccc2o1 (centres undefined)

(continued)
#	structure	Ecoli rRNA inh	Ecoli rRNA inh OD600	Ecoli rRNA inh RFP	MLL AF4-AF9 inh	FGF22 binding
41	C[C@H]1CN([C@@H](C)CO)C(=O)c2cc(NS(=O)(=O)c3cccs3)ccc2O[C@@H]1CN(C)C	3	11	1.3	-0.9	i
42	C[C@H](CO)N1C[C@H](C)[C@@H](CN(C)C(=O)Nc2ccc(F)cc2)Oc2cc(Br)ccc2S1(=O)=O	-18&-4	-19&-2	1.3&2.4	0.6&-0.1	i
43	C[C@H](CO)N1C[C@H](C)[C@@H](CN(C)C(=O)CN(C)C)Oc2cc(C#CCN(C)C)ccc2S1(=O)=O	10	5	-1.1	2.2	i
44	O=S(=O)(Cc1ccccc1)N1CCCCN2[C@H](CO)[C@@H](c3ccc(-c4ccccc4)cc3)[C@@H]2C1	3	-17	5.5	-7.2	i
45	Cc1noc(C)c1S(=O)(=O)Nc1ccc2c(c1)C(=O)N([C@@H](C)CO)C[C@H](C)[C@@H](CN(C)Cc1ccc(-c3ccccc3)cc1)O2	3	-6	8.4	5.7	i
46	CCCC#Cc1cnc2c(c1)C(=O)N([C@H](C)CO)C[C@H](C)[C@@H](CN(C)C(=O)c1cccc(F)c1)O2	0	0	0.0	-4.1	i
47	CN1C(=O)c2cc(NC(=O)c3ccc(F)cc3)ccc2OC[C@@H]2O[C@@H](CC(=O)N3CCOCC3)CC[C@@H]21	1	10	-2.2	-0.2	i
48	C[C@@H]1CN([C@@H](C)CO)C(=O)c2cc(NS(=O)(=O)c3ccccc3)ccc2O[C@@H](C)CCCCO[C@@H]1CN(C)C(=O)c1ccccc1	3	-9	-1.5	1.6	i
49	CC(C)NC(=O)N(C)C[C@H]1Oc2c(NC(=O)Nc3ccccc3)cccc2C(=O)N([C@@H](C)CO)C[C@@H]1C	-1	3	-3.9	-1.8	i
50	CCCNC(=O)[C@H]1[C@H](CO)[C@H]2Cn3c(ccc(C4=CCCC4)c3=O)[C@@H]1N2C(C)=O	-4	-2	-1.7	-1.0	i
51	COC(=O)[C@@]1(Cc2ccc(F)cc2)[C@H]2c3cc(C(=O)N(C)C)n(Cc4ccc(Cl)c(C(F)(F)F)c4)c3C[C@H]2CN1C(=O)c1ccccc1	13	7	8.0	1.7	i
52	CC(C)CC#Cc1cnc2c(c1)C(=O)N([C@@H](C)CO)C[C@H](C)[C@@H](CN(C)C(=O)c1ccccc1F)O2	3	1	0.5	-1.8	i
53	C[C@H]1CN([C@@H](C)CO)C(=O)Cc2cc(NS(=O)(=O)c3cccs3)ccc2O[C@@H]1CN(C)S(C)(=O)=O	2	4	-0.1	4.9	i
54	CO[C@H]1CN(C)C(=O)c2cc(NC(=O)C3CCOCC3)ccc2OC[C@@H](C)N(C(C)=O)C[C@H]1C	3	0	-0.3	1.7	i
55	COc1cc(C(=O)N2CCC2(C)C(=O)NC(C)C)cc(OC)c1OC (centres undefined)	8	4	2.3	-4.4	i
56	CN(C)CC(=O)N[C@@H]1C=C[C@@H](CC(=O)NCc2ccccc2F)O[C@@H]1CO	2	-2	0.0	2.3	i
57	CCOc1ccccc1CNC(=O)C1CCN(S(=O)(=O)N2CCC(C)CC2)CC1	-9	-17	-1.6	-2.1	i
58	O=C(NCC[C@@H]1CC[C@H](NC(=O)C2CCCC2)[C@H](CO)O1)c1cnccn1	0	3	1.2	-2.2	i
59	C[C@@H]1CN([C@H](C)CO)C(=O)Cc2cc(NC(=O)c3ccncc3)ccc2O[C@@H]1CN(C)C	3	5	1.6	0.3	i
60	CCCC#Cc1ccc2c(c1)O[C@@H](CN(C)CCC)[C@H](C)CN([C@@H](C)CO)S2(=O)=O	-2	1	0.4	1.4	i
61	COC(=O)N(C)C[C@@H]1OCc2ccccc2-c2ccccc2C(=O)N([C@H](C)CO)C[C@@H]1C	4	4	-3.5	-2.4	i
62	C[C@@H]1CN([C@H](C)CO)C(=O)c2cc(NS(C)(=O)=O)ccc2O[C@@H](C)CCCCO[C@@H]1CN(C)C(=O)CCC(F)(F)F	-1	3	0.4	-7.4	i
63	CO[C@@H]1CN(C)C(=O)c2cc(NS(=O)(=O)c3ccccc3)ccc2OC[C@@H](C)N(Cc2nccs2)C[C@H]1C	-9	-12	-0.4	3.0	i
64	COc1ccc(S(=O)(=O)N(C)[C@H]2C[C@H]3c4cc(Oc5ccccc5C)ccc4CCN3C(=O)[C@H]2[C@H](C)O)cc1	10	11	14	3.3	i
65	COc1ccc(S(=O)(=O)N(C)C[C@@H]2Oc3c(NC(=O)Nc4ccc(C(F)(F)F)cc4)cccc3C(=O)N([C@@H](C)CO)C[C@@H]2C)cc1	2	8	1.0	-3.4	i
66	CC(C)NC(=O)N[C@H]1CC[C@H](CCNC(=O)C2CCOCC2)O[C@@H]1CO	2	-4	0.3	-1.6	i
